Source: PubChem BioAssay
GALR2 ag – agonists of human galanin receptor 2 (GALR2); O43603; GALR2-expressing cells, agonist activation read-out; activation, %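 (tested at 5 µM)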; 140,000 tested, 0.48% active; AID 803;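 active = above mean plus 3 SD of all compounds, about 5% in these data, not always enough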;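 note: 0% = vehicle buffer wells and 100% = reference agonist at full effect; tested in CHO reporter cells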
Target sequence (O43603 whole entry, looked up): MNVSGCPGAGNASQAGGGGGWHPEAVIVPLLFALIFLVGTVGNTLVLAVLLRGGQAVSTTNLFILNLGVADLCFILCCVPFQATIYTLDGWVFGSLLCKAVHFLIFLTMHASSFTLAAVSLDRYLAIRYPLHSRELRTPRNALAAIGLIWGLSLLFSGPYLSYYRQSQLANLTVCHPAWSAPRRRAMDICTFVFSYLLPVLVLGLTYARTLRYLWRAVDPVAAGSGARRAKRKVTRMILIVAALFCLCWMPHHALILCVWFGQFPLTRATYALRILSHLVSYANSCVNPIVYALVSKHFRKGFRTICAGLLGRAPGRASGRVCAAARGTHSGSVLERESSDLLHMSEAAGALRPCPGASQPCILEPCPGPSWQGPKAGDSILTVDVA
HSV augment – increases HSV replication in cells | HSV replication augmentation in cells, fold increase | maximum fold increase | 220,000 tested, 0.005% active;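 active = peak rise of 1.5-fold or more in the series; tested in PC3 cells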;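 note: first round at 10 µM; read as green reporter fluorescence; hits show the peak of a series up to 25 µM; 1 = signal of infected wells without compound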
PKD1 kinase inh – blocks activity of human protein kinase D1; Q15139; PKD1 kinase fluorescence polarization assay; inhibition, %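 (about 10 µM by stock and volumes)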; 200,000 tested, 0.056% active; AID 797;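 active = inhibition of 50% or more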;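 note: controls were vehicle for no effect and a reference inhibitor for full effect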
Insulin prom inh – TRM-6 insulin promoter activity inhibition; TRM-6 cells (human fetal islet line), insulin promoter-eGFP reporter, imaging; reporter expression induced with tamoxifen; inhibition, % at 2 µM; 130,000 tested, 0.9% active; AID 1273;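 active = inhibition above the mean plus 3 SD, with well images judged a real hit on visual review, cut at about 60% in these data, passing the limit was not always enough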
RGS16-Gao – RGS16-Galphao interaction regulator (human). bead-based flow cytometry RGS16-Galphao binding, fluorescence; actives lie on both sides. 220,000 tested, 0.38% active. binding response (% of control), % at 10 µM. O15492+P09471;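 active = below 25% or above 175%, edge rows of some plates excepted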;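 note: Galphao activated by GDP with aluminum fluoride before binding; 100% = wells without compound and 0% = beads without RGS; some results beyond the cut were filed as inactive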
Target sequence (O15492 whole entry, looked up): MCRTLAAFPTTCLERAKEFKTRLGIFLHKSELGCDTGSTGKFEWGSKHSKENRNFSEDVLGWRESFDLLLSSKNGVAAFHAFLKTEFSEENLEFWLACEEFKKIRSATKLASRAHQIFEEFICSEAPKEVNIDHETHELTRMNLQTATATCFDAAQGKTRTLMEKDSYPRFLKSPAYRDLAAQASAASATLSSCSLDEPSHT
Target sequence (P09471 whole entry, looked up): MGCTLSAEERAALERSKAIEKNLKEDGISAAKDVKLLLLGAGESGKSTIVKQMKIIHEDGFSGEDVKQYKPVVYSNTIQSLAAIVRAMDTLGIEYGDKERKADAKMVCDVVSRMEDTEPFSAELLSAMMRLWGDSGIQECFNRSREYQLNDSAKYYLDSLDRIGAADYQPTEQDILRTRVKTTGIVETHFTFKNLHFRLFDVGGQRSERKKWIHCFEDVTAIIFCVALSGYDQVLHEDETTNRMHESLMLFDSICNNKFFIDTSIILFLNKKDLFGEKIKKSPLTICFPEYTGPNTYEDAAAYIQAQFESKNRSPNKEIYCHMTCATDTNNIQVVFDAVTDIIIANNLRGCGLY
Insulin prom inh cell count – further read-out of Insulin prom inh, marked with its call; normalized cell count, %; measured here: cell count, toxicity; reference of the scale not given here;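 cells exposed to compound for 48 h; stained nuclei by imaging scaled within each plate; lower means fewer cells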
HSV augment primary fold – second read-out of HSV augment, no call of its own (marks repeat the call); fold increase; compound at 10 µM; measured here: primary screen fold increase 10 uM; tested in PC3 cells;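 GFP signal in the first replicate; 1 = infected wells without compound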
Starred values were filed as active, the others as inactive; i = inactive; . = no result given. Not a hit list. About 1.3% of those tested had a hit in this group.

SMILES	GALR2 ag	HSV augment	HSV augment primary fold	PKD1 kinase inh	Insulin prom inh	Insulin prom inh cell count	RGS16-Gao
CNC(=O)CC1C(=O)N(Cc2ccccc2)C(=S)N1NC(=O)c1cccc(F)c1 (stereo not given)	-1.1	i	1	3	15	77	110
C=CCOc1ccccc1C1NC(=O)NC(C)=C1C(=O)NCc1ccccc1 (stereo not given)	-2.5	i	0.89	-1	-13	72	98
COC(=O)c1cc(=O)n(Cc2cccs2)c(=NCc2cccs2)s1	-1.8	i	1	12	-27	91	100
S=c1[nH]nc(-c2ccccc2)n1C1C=CCCC1 (stereo not given)	-0.3	i	0.9	-8	-6	106	99
O=C(Oc1cccc(-n2cnnn2)c1)c1ccccc1Cl	.	i	1	-3	.	.	109
Cc1cc(NC(=O)CSc2ncccc2C(=O)O)no1	.	i	0.95	2	.	.	100
CSc1nc(-c2ccc(Cl)cc2)nn1S(=O)(=O)c1ccc(Cl)cc1	-1.3	i	1.1	10	.	.	94
O=C(O)CCC(=O)Nc1nc(-c2ccccc2)cs1	1.2	i	0.97	-12	-11	204	103
O=C(O)CC12CC3CC(C1)CC(n1cncn1)(C3)C2	.	i	0.97	1	0	62	104
CC(C)C(=O)Nc1cccc(C(=O)OCC(=O)c2ccc(Cl)cc2Cl)c1	-1.4	i	0.69	-8	9	209	100
COCCCN(C(=O)c1ccco1)c1nc(-c2cc(OC)ccc2OC)cs1	-0.8	i	0.85	-8	19	108	105
CCCCOc1ccc(C(=O)N/C(=C/C=C/c2ccccc2)C(=O)O)cc1	.	i	0.92	-9	20	124	101
CN1C[C@@H]2C(c3ccc(C(F)(F)F)cc3)C3(c4cccnc4)CC2(C3)[C@H]1c1ccccc1 (stereo not given in full)	.	i	0.97	.	.	.	104
Clc1cc(Cl)c(OCc2nc(-c3ccccn3)no2)cc1Cl	-3.5	i	0.73	-6	-375	21	96
CNC(=O)c1[nH]cnc1C(=O)N[C@@H](C)C(=O)OCc1ccccc1	.	i	0.98	.	.	.	99
CSc1ccc(C(=O)C2CCCN(C(=O)c3cccc(N4CCOCC4)c3)C2)cc1 (stereo not given)	.	i	0.97	0	0	88	102
Cc1ccc(C)n1-c1c(C(=O)NN)cnn1-c1ccccc1	.	i	0.98	3	.	.	101
CCOC(=O)C(CC)/C(C)=N\NC(=O)c1cccc(C)c1 (stereo not given)	.	i	0.91	-5	.	.	112
CC(C)CCOc1ccc(C(=O)NCCC(=O)N2CCOCC2)cc1	-2.1	i	1	-3	31	161	105
O=C(OCc1ccc(Cl)cc1Cl)c1cccnc1Cl	-1.1	i	0.95	0	0	201	106
CCOC(=O)c1[nH]c2ccc(OC)cc2c1NC(=S)N1CCN(c2ccccn2)CC1	.	i	0.91	-6	.	.	105
CCC(=O)N1CCN(c2ccccc2NC(=O)COc2cc(C)ccc2C(C)C)CC1	0.1	i	0.91	-7	-37	92	76
COc1ccccc1NC(=O)c1ccc(NC(=O)CN2C(=O)CN(C)C2=O)cc1	.	i	0.99	-1	.	.	98
Cc1ccc2ccccc2[n+]1CCCS(=O)(=O)[O-]	-2.1	i	1	4	10	189	104
Cc1ccc2cc(CN(CCCN(C)C)C(=S)NCc3ccccc3)c(=O)[nH]c2c1C	.	i	0.66	-3	.	.	99
C=CCOc1ccc(C2/C(=C(\O)c3ccc(F)cc3)C(=O)C(=O)N2CCCN(C)C)cc1 (stereo not given)	8.3*	i	0.93	-10	.	.	104
CN(C)/C=C/C(=O)c1ccc(C(F)(F)F)cc1F	.	i	0.99	0	.	.	104
CC(C)NCC(O)(c1ccc(Cl)cc1)c1ccc(Cl)cc1	.	i	0.74	-4	-135	71	113
O=C(CSCC(=O)Nc1nccs1)Nc1ccccc1	-1.9	i	1	-8	.	.	94
O=C(CCc1ccccc1)Nc1c(F)c(F)c(F)c(F)c1F	-2.6	i	1	-1	-14	66	107
N/C(=N\OC(=O)CCC1CCCCC1)c1cccnc1	-2.8	i	0.85	-1	0	94	106
CCNC(=O)[C@H]1O[C@@H](n2cnc3c(N)nc(NCCc4ccc(CCC(=O)O)cc4)nc32)[C@H](O)[C@@H]1O	.	i	0.94	.	.	.	95
CC(NC(=O)Nc1nccs1)(C(F)(F)F)C(F)(F)F	-0.2	i	0.99	-6	0	103	110
CCN(Cc1ccncc1)C(=O)CCc1nnc(CCC2CCCCC2)o1	.	i	1.1	-8	43	64	112
CC(Sc1ccccc1)C(=O)NN=C1CCCCCCC1 (stereo not given)	.	i	0.98	0	.	.	100
O=C(NCc1ccco1)C(Cc1ccccc1)N1C(=O)C2C3C=CC(C3)C2C1=O (stereo not given)	0.5	i	0.99	6	-64	98	105
CCOc1ccc(S(=O)(=O)NCc2ccco2)c2ccccc12	0.0	i	0.81	-27	-36	54	102
CNC(=O)CN(c1cccc(Br)c1)S(C)(=O)=O	-2.5	i	0.99	-4	53	154	102
CN(c1cccc(Cl)c1)S(=O)(=O)c1cccc(C(=O)Nc2nc3ccccc3[nH]2)c1	-0.7	i	0.76	8	.	.	87
O=C(O)c1c2c(nc3ccc(S(=O)(=O)N4CCC(C(=O)N5CCCCC5)CC4)cc13)CCCC2	0.8	i	1	-8	.	.	111
CC(C)(C)C1CCC(OC(=O)c2cncc(Br)c2)CC1 (stereo not given)	.	i	0.95	11	.	.	106
Cc1ccc(-n2cc(CNCCc3cscn3)c(-c3ccc(F)cc3)n2)cc1	.	i	0.71	2	-50	93	93
CC(C)NC(=O)c1c(CSc2ccccc2)noc1C(=O)NCc1ccccc1	.	i	0.74	.	.	.	127
Cc1sc2c(c1C)c(=O)n(-c1ccccc1)c1nnc(C)n21	-2.2	i	0.85	-13	-13	96	101
COc1ccc(OC)c(-c2cc(C(=O)Nc3cc(C)on3)no2)c1	0.3	i	1.1	-2	5	58	109
CCc1ccc(CN(C)C(=O)CCc2nnc(-c3ccc(-c4ccccc4)cc3)o2)nc1	.	i	0.92	7	.	.	105
CCOCCc1c(O)nc(SCCOc2ccc(C)c(C)c2)[nH]c1=O	.	i	0.9	3	.	.	104
COCC(=O)OCC(=O)Nc1ccc(Cl)cc1[N+](=O)[O-]	.	i	0.99	-1	.	.	97
CN1C(=O)C2(Nc3ccccc3-c3nc4ccccc4n32)c2ccccc21 (stereo not given)	-0.7	i	0.68	-4	-47	117	99
c1ccc(CN(Cc2ccccc2)c2c3c(nc4ncnn24)CCC3)cc1	.	i	1	.	.	.	109
O=C(CCN1CCN(Cc2ccccc2)CC1)Nc1cccc(Cl)c1	-0.7	i	0.9	-10	-21	104	106
Cc1cc(C)nc(SCc2ccc(C(=O)N/N=C/c3cccnc3)cc2)n1	.	i	0.96	-5	.	.	103
Cc1nc(NC(=O)COC(=O)CCC(=O)c2cccs2)c(Cl)cc1Cl	-0.4	i	0.96	13	-29	129	104
COc1ccc(S(=O)(=O)N2CCCCC2)cc1NC(=O)c1cccnc1SC	.	i	0.96	.	.	.	107
COc1ccc(/C=N/NC(=O)Cn2nc([N+](=O)[O-])cc2C)c(OC)c1OC	.	i	1	.	.	.	105
COc1ccc(C2CC(c3cccs3)=NN2c2ccc(C=O)cc2)cc1 (stereo not given)	29*	i	1.1	-10	-68	142	107
CC(C)NC(=O)NC(=O)COC(=O)c1cc[n+]([O-])cc1	.	i	0.62	2	.	.	96
CCc1nccn1S(=O)(=O)c1ccc2ccc(C)cc2c1	-1.5	i	0.94	-5	-4	93	101
O=c1c2ccccc2nc2ccc(N3CCOCC3)nn12	-1.2	i	0.99	-2	.	.	100
COc1ccc(N2C(=O)CC(Sc3ncn[nH]3)C2=O)c(OC)c1 (stereo not given)	-2.3	i	0.78	2	.	.	102

The listing continues:
SMILES	GALR2 ag	HSV augment	HSV augment primary fold	PKD1 kinase inh	Insulin prom inh	Insulin prom inh cell count	RGS16-Gao
CC(C)(C)C(=O)CSc1ncnc2c1cnn2-c1ccccc1	.	i	0.68	.	.	.	110
Oc1c(Cl)cc(Cl)c2cccnc12	.	i	0.72	-5	-9	69	95
Cc1ccc(/C=C/C(=O)NC2CCS(=O)(=O)C2)cc1 (stereo not given)	.	i	0.96	5	7	78	107
CCn1c(=O)c(C(=O)NCCc2ccccc2)c(O)c2ccccc21	0.6	i	0.89	-8	0	113	107
CCC(NC(=O)Cn1cnc2c(=O)n(C)c(=O)n(C)c21)c1ccccc1 (stereo not given)	-0.6	i	0.84	0	-11	58	99
COc1ccc(C)cc1N(C(=O)c1cccc(F)c1)c1nc2ccccc2s1	-1.3	i	1.2	0	.	.	96
CCOc1ccc(-n2c(SCC(=O)Nc3ccccc3C)n[nH]c2=O)cc1	-1.9	i	1.1	-1	3	101	100
COc1ccc2c(=O)cc(-c3cccnc3)oc2c1OC	.	i	0.85	.	.	.	99
CCn1c(SCC(=O)NC2CCCc3ccccc32)nnc1-c1ccncc1 (stereo not given)	-0.5	i	0.94	-4	7	230	104
O=C(c1cc2c(ccc3ccccc32)o1)N1CCN(c2ncc(C(F)(F)F)cc2Cl)CC1	-3.0	i	1	-3	-3	152	104
O=C(NCCc1ccccc1)C1CCN(S(=O)(=O)c2ccc(-c3nn[nH]n3)cc2)CC1	-1.8	i	0.98	2	.	.	105
Cc1cc(C(=O)COC(=O)c2ccc(N)c([N+](=O)[O-])c2)c(C)n1-c1ccc2c(c1)OCO2	-0.7	i	0.81	-9	33	104	105
CCC(=O)N1CCc2cc(S(=O)(=O)NCCC(=O)Nc3cc(C)cc(C)c3)ccc21	-1.8	i	1	12	.	.	101
Oc1ccc2c(c1)C1CCCC1(N1CCOCC1)O2 (stereo not given)	-0.9	i	0.95	-7	4	119	105
CCCCOc1ccc(/C(O)=C2/C(=O)C(=O)N(CCN(C)C)C2c2ccc(O)c(OC)c2)cc1 (stereo not given)	-1.4	i	0.94	1	.	.	96
Cc1cccc(CN2CCN(CC(=O)N3CCCC3)C2=O)c1	-1.6	i	0.99	0	-6	109	97
C=CCN1C(=O)CSC1=Nc1ccc(O)cc1	-0.4	i	0.7	2	-14	86	73
CCCCn1c(=NC(=O)c2cccnc2)c(C(=O)OCC)cc2c(=O)n3ccccc3nc21	4.5	i	0.83	-1	26	105	101
COC(=O)C1=CN(CC2CCCO2)C=C(C(=O)OC)C1c1cccc(O)c1 (stereo not given)	.	i	0.84	6	0	95	98
O=C(NC1(C(F)(F)F)NC(=O)N(C2CCCC2)C1=O)C1CC1 (stereo not given)	-0.6	i	0.94	-2	-361	46	105
COc1cccc(-n2cn[nH]c2=S)c1	.	i	1	-2	-35	85	98

Grouped by structure: the entries above with an aryl methoxy group.
SMILES	GALR2 ag	HSV augment	HSV augment primary fold	PKD1 kinase inh	Insulin prom inh	Insulin prom inh cell count	RGS16-Gao
COCCCN(C(=O)c1ccco1)c1nc(-c2cc(OC)ccc2OC)cs1	-0.8	i	0.85	-8	19	108	105
CCOC(=O)c1[nH]c2ccc(OC)cc2c1NC(=S)N1CCN(c2ccccn2)CC1	.	i	0.91	-6	.	.	105
COc1ccccc1NC(=O)c1ccc(NC(=O)CN2C(=O)CN(C)C2=O)cc1	.	i	0.99	-1	.	.	98
COc1ccc(OC)c(-c2cc(C(=O)Nc3cc(C)on3)no2)c1	0.3	i	1.1	-2	5	58	109
COc1ccc(S(=O)(=O)N2CCCCC2)cc1NC(=O)c1cccnc1SC	.	i	0.96	.	.	.	107
COc1ccc(/C=N/NC(=O)Cn2nc([N+](=O)[O-])cc2C)c(OC)c1OC	.	i	1	.	.	.	105
COc1ccc(C2CC(c3cccs3)=NN2c2ccc(C=O)cc2)cc1 (stereo not given)	29*	i	1.1	-10	-68	142	107
COc1ccc(N2C(=O)CC(Sc3ncn[nH]3)C2=O)c(OC)c1 (stereo not given)	-2.3	i	0.78	2	.	.	102
COc1ccc(C)cc1N(C(=O)c1cccc(F)c1)c1nc2ccccc2s1	-1.3	i	1.2	0	.	.	96
COc1ccc2c(=O)cc(-c3cccnc3)oc2c1OC	.	i	0.85	.	.	.	99
CCCCOc1ccc(/C(O)=C2/C(=O)C(=O)N(CCN(C)C)C2c2ccc(O)c(OC)c2)cc1 (stereo not given)	-1.4	i	0.94	1	.	.	96
COc1cccc(-n2cn[nH]c2=S)c1	.	i	1	-2	-35	85	98
